Source: PubChem
HNF4A DNA FP: change in binding of human HNF4 alpha to DNA | HNF4a-FITC DNA binding, fluorescence polarization, 1 h | activity change, % at 10 µM | hit rate 0.3% among 360,000 | AID 1224865; in the data active means activity change above about 30%, passing the limit was not always enough;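 further: controls were the assay level and a saturating level of protein; the project sought stronger binding though the title names inhibitors; some compounds called inactive have numbers as strong as hits; positive values seem to mean higher polarization but the record does not say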
Target sequence (P41235 whole entry, looked up): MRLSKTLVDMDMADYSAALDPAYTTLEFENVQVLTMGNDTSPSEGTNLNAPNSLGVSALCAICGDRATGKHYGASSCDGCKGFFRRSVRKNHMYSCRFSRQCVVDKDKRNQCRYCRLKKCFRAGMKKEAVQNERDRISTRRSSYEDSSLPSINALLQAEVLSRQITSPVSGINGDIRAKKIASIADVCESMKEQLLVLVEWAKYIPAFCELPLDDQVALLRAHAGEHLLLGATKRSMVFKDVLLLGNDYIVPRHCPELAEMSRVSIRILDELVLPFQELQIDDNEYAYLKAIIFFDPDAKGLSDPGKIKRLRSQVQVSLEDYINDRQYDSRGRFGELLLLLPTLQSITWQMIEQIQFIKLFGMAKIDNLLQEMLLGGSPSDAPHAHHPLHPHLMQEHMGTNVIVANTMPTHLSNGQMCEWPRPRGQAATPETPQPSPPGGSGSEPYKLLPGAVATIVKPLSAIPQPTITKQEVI
Vif A3G: HIV-1 Vif–A3G interaction blockers – biochemical, TR-FRET, GST-Vif 1-94, biotin-A3G peptide, dose response retest, primary screen (AID 1117319) | inhibition, %; hits with a dose series show IC50 in µM | TR-FRET GST-Vif / biotin-A3G peptide binding; higher % means a stronger effect; test concentration not given here; strong numbers were not always called active | hit rate 0.57% among 260,000;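 active means above the screen mean plus three standard deviations and confirmed in dose response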;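 further: Vif residues 1-94 fused to GST binding biotinylated APOBEC3G peptide 110-148; 0% = full assay without inhibitor and 100% = GST in place of GST-Vif; retest series ran down from 100 µM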
ALR H2O2 inh: blocks human ALR sulfhydryl oxidase activity. P55789. purified ALR, DTT oxidation, H2O2 HRP-luminol luminescence. inhibition, % (test concentration not listed). hit rate 3.8% among 290,000. AID 485317;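 active means mean and each replicate at 75% or more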;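 further: stock transfer was 7.5 nL into about 7.5 µL; 0% = neutral wells and 100% = wells with inactivated enzyme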
Ecoli rRNA inh: selective bacterial rRNA inhibition in E. coli; E. coli WT GFP vs humanized-ribosome RFP mutants, fluorescence, 24 h; hits give low values; DMSO median 0, no signal -100; GFP signal change (wild-type ribosome), % (concentration not given with the values); hit rate 1.6% among 350,000;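 active means significant combined selectivity score with lowered wild-type GFP, culture density cut under 30%, mutant RFP and density less affected; inactive means any of these conditions unmet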; further: one replicate is shown; some compounds called inactive have numbers as strong as hits
Ecoli growth: blocks Escherichia coli growth; OD600, 23 h; hits give low values; OD600 absorbance (concentration not given with the values); hit rate 0.21% among 330,000; AID 1053175;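 active means OD600 absorbance below the run mean of sample wells minus 3.6 SD, in any replicate, cut at about 0.56 in these data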;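 further: stock transfer was 300 nL into about 60 µL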
MLL AF4-AF9 inh: inhibitors of human MLL-AF4/AF9 interaction; P42568; AlphaScreen, biotin-AF4 peptide binding to FLAG-AF9; inhibition, % at 10 µM; hit rate 0.47% among 350,000; AID 651704;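 active means every replicate reaching a set inhibition limit, whatever the replicate mean, cut at about 25% in these data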;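 further: 0% = plate neutral control median and 100% = total signal loss; the record names both 10 and 1 µM as test concentration; the first replicate is given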
Target sequence (P42568 whole entry, looked up): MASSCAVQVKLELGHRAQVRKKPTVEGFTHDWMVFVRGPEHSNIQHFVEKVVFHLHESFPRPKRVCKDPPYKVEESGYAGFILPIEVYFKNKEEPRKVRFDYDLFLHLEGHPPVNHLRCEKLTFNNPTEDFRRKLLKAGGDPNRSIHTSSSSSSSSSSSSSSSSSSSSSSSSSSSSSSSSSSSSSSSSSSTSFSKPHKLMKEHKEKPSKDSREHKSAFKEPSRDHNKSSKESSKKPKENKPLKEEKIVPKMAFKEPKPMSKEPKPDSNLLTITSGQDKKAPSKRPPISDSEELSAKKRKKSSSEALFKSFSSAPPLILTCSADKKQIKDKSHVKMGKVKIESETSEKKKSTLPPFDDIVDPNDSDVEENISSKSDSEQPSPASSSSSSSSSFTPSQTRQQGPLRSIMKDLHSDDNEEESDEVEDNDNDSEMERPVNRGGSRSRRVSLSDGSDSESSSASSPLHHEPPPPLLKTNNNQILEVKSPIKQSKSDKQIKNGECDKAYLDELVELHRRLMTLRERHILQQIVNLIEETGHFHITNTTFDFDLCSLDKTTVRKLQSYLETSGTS
FGF22 binding: shifts melting point of recombinant human FGF22. recombinant FGF22 thermal shift, SYPRO orange fluorescence; percent of sucrose octasulfate shift, DMSO zero. calls only at 9.99 µM. hit rate 1.5% among 340,000. AID 651658;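 active means melting point raised past a set limit in the mean and every replicate; three in four hits are not shown here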
Ecoli rRNA inh OD600: second read-out of Ecoli rRNA inh, no call of its own (marks repeat the call); OD600 change, %; measured here: OD600 growth;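 optical density of the mix in the first replicate; 0 = DMSO median and -100 = no signal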
Ecoli rRNA inh RFP: also measured in Ecoli rRNA inh; calls as there; RFP signal change, %; measured here: RFP humanized mutant strains;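 first replicate; 0 = DMSO median and -100 = no signal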
* = called active by the depositor; i = inactive; x = no result given; & = joins results of further samples.

SMILES | FGF22 binding | Ecoli rRNA inh RFP | Vif A3G | ALR H2O2 inh | MLL AF4-AF9 inh | Ecoli rRNA inh OD600 | Ecoli growth | Ecoli rRNA inh | HNF4A DNA FP
CCNC(=O)CSc1nc2sccc2c(=O)n1-c1ccccc1 | i | 0.2 | 0% | x | -1.8 | 1 | 0.7 | 3 | -1.1
O=[N+]([O-])c1ccc2c3n([n+]([O-])c2c1)CCN=C3c1ccc(Cl)cc1 | i | 0.6 | x | -16 | x | 10 | 0.63 | 3 | 15
Cc1noc(C)c1NC(=O)N(C)C[C@H]1Oc2c(NC(=O)Cc3ccccc3)cccc2C(=O)N([C@H](C)CO)C[C@@H]1C | x | x | x | 2 | x | x | 0.74 | x | -1.9
CCOc1nc(-c2ccccc2)ccc1-c1noc(COc2ccccc2)n1 | x | x | 6% | -2 | x | x | 0.7 | x | 3.0
Cc1ccccc1OCC(=O)Nc1cccc(NC(=O)c2ccco2)c1 | x | x | 14% | 6 | x | x | 0.64 | x | 1.9
CCCc1nc2ccccc2c(=O)n1-c1c(C)n(C)n(-c2ccccc2)c1=O | x | x | -7% | 0 | x | x | 0.68 | x | -0.8
Cn1cnc(S(=O)(=O)N2CC[C@@H]3[C@H]2c2cc(-c4ccccc4)ccc2N[C@@H]3CO)c1 | i | 1.3 | x | x | -0.3 | -2 | x | -3 | x
Cc1ccc2nc(NCc3ccccc3)c(C#N)cc2c1 | i | -0.7 | x | x | 1.5 | 1 | 0.69 | 8 | -0.8
Cc1ccc(NC(=O)CSc2cn[nH]n2)cc1 | i | -0.8 | x | 3 | -7.1 | 7 | 0.68 | 2 | -1.8
NNC(=O)c1ccccc1OCc1ccccc1 | i | -0.1 | -5% | 7 | -0.1 | -25 | 0.66 | -21 | 3.6
O=C(Nc1ccc2c(c1)OCCO2)C1CCCN(S(=O)(=O)c2cccc3nsnc23)C1 (centres undefined) | i | -0.9 | 8% | -7 | 2.6 | -7 | 0.66 | -17 | 0.2
O=C(CSc1nccn1-c1ccccc1)c1ccc(Cl)cc1 | x | x | 16% | -25 | x | x | 0.69 | x | -1.8
O=C(Nc1ccc(F)cc1F)c1ccc2c(c1)[nH]c(=O)n2Cc1ccc(F)cc1 | i | 0.1 | x | 1 | 0.4 | 8 | 0.67 | 0 | 7.0
CCOc1ccc(CNn2nnnc2N)cc1 | x | x | 2% | -8 | x | x | 0.74 | x | 1.7
CCCS(=O)(=O)N1CCC(C(=O)NCc2cccnc2)CC1 | x | x | 0% | 3 | x | x | 0.73 | x | -7.4
COc1cccc(OC)c1OCCNCCO | x | x | 4% | -21 | x | x | 0.78 | x | -1.1
CC(=O)Nc1ccc(C(=O)OCC(=O)Nc2c(F)cccc2F)cc1 | i | -0.4 | -16% | -2 | -1.3 | 5 | 0.72 | 22 | 2.1
COc1cc(/C=N/NC(=O)c2nnn(-c3nonc3N)c2C(C)C)ccc1OCc1ccccc1 | i | 2.3 | -6% | -3 | 0.4 | 0 | x | 1 | 3.3
O=C(OCc1ccccc1)c1cccc(-c2nnc(-c3ccccc3)o2)c1 | x | x | -6% | 0 | x | x | 0.75 | x | -1.7
Cc1c(NC(=O)OCCNC(=O)COc2c(Cl)cccc2Cl)sc(=S)n1C | x | x | -3% | 65 | x | x | 0.71 | x | -0.9
CO[C@H]1CN(C)C(=O)c2cc(NC(=O)CC(F)(F)F)ccc2OC[C@H](C)N(C(C)=O)C[C@H]1C | i | 1.7 | x | x | 1.1 | -2 | x | 2 | x
COCCn1c(SCc2ccccc2)nc2c1c(=O)[nH]c(=O)n2C | i | 1.3 | -5% | -2 | -0.7 | 8 | 0.7 | 12 | -0.7
CC(C)N(C(=O)[C@H]1CC(CC(=O)NC(C)(C)C)C(=O)N2CCc3c([nH]c4ccccc34)[C@]12C)C(C)C (some centres undefined) | i | 2.3 | -5% | x | 5.1 | -6 | 0.71 | -4 | -3.8
O=C(NC(c1ccccc1)c1ccccc1)c1ccc(CO)cc1 | i | -0.3 | x | 1 | -0.9 | -2 | 0.7 | -2 | 1.2
C[C@@H]1CCCCO[C@H](CN(C)Cc2ccncc2)[C@@H](C)CN([C@H](C)CO)C(=O)c2cc(NC(=O)NC3CCCCC3)ccc2O1 | i | -1.0 | x | x | -1.9 | 11 | x | 1 | x
CCN(CC)S(=O)(=O)c1cccc(NC(=O)COC(=O)/C=C/c2cccs2)c1 | i | -3.5 | 26% | -4 | 10 | -7 | 0.67 | -12 | -0.3
Cc1ccc(S(=O)(=O)N2CCN(C(=O)COC(=O)c3cc([N+](=O)[O-])ccc3NCCO)CC2)c(C)c1 | i | x | x | -4 | 0.7 | x | x | x | -0.1
Cc1ccc2c(c1)-c1c(cnn1CC(=O)N(Cc1ccco1)C1CCCCC1)CO2 | i | 19 | 1% | -11 | 3.3 | -64 | 0.72 | -25 | 2.6
C[C@@H]1CN([C@@H](C)CO)S(=O)(=O)c2ccc(-c3cccc(C#N)c3)cc2O[C@H]1CN(C)C | i | -1.1 | x | x | 0.0 | -2 | x | 2 | x
C[C@H](CO)N1C[C@H](C)[C@@H](CN(C)Cc2ccccc2)Oc2ccc(NC(=O)C3CC3)cc2CC1=O | i | -0.8 | x | x | 0.3 | -2 | x | 1 | x

SMILES | FGF22 binding | Ecoli rRNA inh RFP | Vif A3G | ALR H2O2 inh | MLL AF4-AF9 inh | Ecoli rRNA inh OD600 | Ecoli growth | Ecoli rRNA inh | HNF4A DNA FP
CC(C)CCNC(=O)NC(=O)COC(=O)c1cc(S(=O)(=O)N2CCOCC2)ccc1N1CCCCC1 | x | x | -3% | -5 | x | x | 0.75 | x | -1.6
O=C(Cc1cccnc1)N[C@H]1CC[C@@H](CCn2cc(-c3ccccc3F)nn2)O[C@@H]1CO | i | -2.4 | x | x | -2.3 | 2 | x | 2 | x
CCNc1ncnc2[nH]ncc12 | x | 0.9 | 2% | x | -2.0 | 13 | 0.72 | 14 | 3.1
COc1cc(C(=O)OCC(=O)Nc2ccc(F)cc2F)cc(OC)c1OC | x | x | -4% | -2 | x | x | 0.73 | x | -1.8
COc1cc(S(=O)(=O)Nc2cccc3cn[nH]c23)c(OC)cc1C | i | 1.2 | x | 6 | 4.8 | -11 | 0.68 | -3 | -1.1
CCCCCCC(=O)N1CCC(c2nc3c(nnn3Cc3ccccc3Cl)c(=O)[nH]2)CC1 | x | x | 0%&-3% | -2 | x | x | 0.67 | x | 1.4
COC(=O)N=Nc1c(O)[nH]c2ccc(Br)cc12 | i | -1.0 | x | 3 | 9.7 | 9 | 0.68 | 2 | -2.5
COc1ccccc1N1CCN(CCN2C(=O)C3CCCN3C2=O)CC1 (centres undefined) | i | 0.2 | x | 26 | -17 | 10 | 0.62 | 10 | -2.4
Nc1nc(CSc2ncn[nH]2)nc(Nc2ccc(F)cc2)n1 | x | x | 23% | 2 | x | x | 0.62 | x | -3.1
Cc1ccc(NC(=O)C(C)N2C(=O)c3ccccc3C2=O)nc1 (centres undefined) | i | 0.2 | -3% | -49 | -5.7 | -1 | 0.68 | -1 | 3.5
Cc1cc(C)c(NC(=O)CCCC(=O)O)c(Cl)c1 | x | -4.5 | 0% | -2 | x | 5 | 0.72 | -2 | -1.9
Cc1cc(C)cc(OC(C)C(=O)Nc2ccccc2C(=O)NCc2cccnc2)c1 (centres undefined) | i | -1.8 | x | 3 | 1.8 | -23 | 0.67 | -3 | 1.7
CC1CCN(C(=S)NC(=O)c2cccs2)CC1 | i | -2.1* | 17% | 2 | -29 | -11* | 0.69 | -22* | -2.2
C[C@H]1CN([C@@H](C)CO)C(=O)c2cccc(N(C)C)c2O[C@@H]1CN(C)S(=O)(=O)c1ccc(F)cc1 | i | 2.4 | x | x | -2.6 | -8 | x | -4 | x
O=C1CSC(c2cn(-c3ccccc3)nc2-c2cc3ccccc3oc2=O)N1Cc1ccco1 (centres undefined) | x | x | 8% | -25 | x | x | 0.74 | x | -2.6
O=C(CSc1n[nH]c(=O)n1-c1cccnc1)Nc1ccccc1 | i | 0.3 | 3% | 1 | -2.8 | 14 | 0.64 | 1 | -4.0
COc1ccc(-c2csc(Nc3cccc(C)n3)n2)cc1 | i | -2.3 | x | -2 | -1.4 | -1 | 0.68 | -2 | 1.5
Cc1nc2ccc(F)cc2cc1C(=O)Nc1cccc(Cl)c1C | x | x | -5% | -2 | x | x | 0.69 | x | 1.0
O=C(CCC(=O)N1CCOc2ccc(Cl)cc21)N1CCN(c2ccccn2)CC1 | i | 5.2 | x | -1 | -9.0 | -50 | 0.68 | -41 | 0.5
COc1ccc(S(=O)(=O)N2CCC(C(=O)N[C@H](C(=O)NC3CCCC3)C(C)C)CC2)cc1 | i | 1.2 | x | -2 | -0.4 | 11 | 0.69 | 14 | 1.2
Cc1nnc(SCC(=O)Nc2sc3c(c2C#N)CCCCC3)n1N | x | x | 8% | 11 | x | x | 0.68 | x | 1.0
C[C@H]1CCCCO[C@H](CN(C)Cc2ccccc2)[C@@H](C)CN([C@@H](C)CO)C(=O)c2cc(N(C)C)ccc2O1 | i | -0.6 | x | x | 6.4 | 1 | x | -1 | x
C[C@H]1CN([C@@H](C)CO)C(=O)Cc2cc(NC(=O)Cn3cnnn3)ccc2O[C@@H]1CN(C)C(=O)NC1CCCCC1 | i | 1.9 | x | x | -2.4 | 5 | x | 3 | x
Cc1ccc2c(Cl)cc(Cl)c(OCC(=O)N3CCOCC3)c2n1 | i | -1.8 | 7% | -8 | -1.0 | 4 | 0.7 | 1 | 0.4
Cc1ccc2nc(/C(C#N)=C/c3ccc(-c4cccc([N+](=O)[O-])c4)o3)[nH]c2c1 | i | -3.7 | -2% | -9 | -10 | 7 | 0.72 | 15 | 23
COc1ccc(Cn2c(=S)[nH]c3cc(C(=O)NCCCN4CCOCC4)ccc3c2=O)cc1 | i | 5.9 | x | 8 | -10.0 | -9 | 0.65 | 0 | 0.2
COc1cccc(C(=O)Nc2ccc3c(c2)C(=O)N(C)C[C@@H](OC)[C@@H](C)CN(C(=O)C2CCCC2)[C@@H](C)CO3)c1 | i | 8.5 | x | x | -4.3 | -25 | x | -8 | x
Cc1cc(NC(=O)c2ccco2)c(=O)n(Cc2c(F)cccc2Cl)c1 | i | -3.1 | x | x | -1.9 | -1 | 0.7 | 3 | 5.2
COc1cc(C(=O)NC2CCCc3ccccc32)cc(OC)c1OC (centres undefined) | i | 0.7 | 2% | -7 | 2.1 | 4 | 0.66 | 8 | 4.9
COc1ccc(-c2nc(-c3ccccn3)nc(N3CCN(C)CC3)c2C#N)cc1 | i | -1.0 | -1% | 46 | 2.0 | -12 | 0.62 | -6 | -5.0
COCCN(C(=O)COC(=O)CCC1CCCCC1)c1c(N)n(Cc2ccccc2)c(=O)[nH]c1=O | i | -1.4 | x | x | 0.5 | 16 | x | 6 | 3.6
COc1ccc(N(CC(=O)N2CCN(C)CC2)S(=O)(=O)c2ccccc2)cc1OC | x | x | 10% | x | x | x | 0.71 | x | -2.6
O=C(CSc1ncn[nH]1)Nc1cccc(S(=O)(=O)N2CCCCCC2)c1 | x | x | 5% | -4 | x | x | 0.68 | x | -1.6

Not all compounds are listed, so the mix of outcomes need not match the whole.
